Compound activity from PubChem BioAssay.
TRPV1 potentiator – human TRPV1 potentiation. Q8NER1. TRPV1-expressing cells, Fluo-8 calcium influx, capsaicin EC20 potentiation; host cell line not named in the record; control for the full effect not named in the record. potentiation, % at 8.33 µM. hit rate 0.02% among 320,000. AID 540277; active means potentiation above 80%; inconclusive means 30% to 80%; inactive means below 30%; note: 0% is about no effect
Target sequence (Q8NER1 whole entry, looked up): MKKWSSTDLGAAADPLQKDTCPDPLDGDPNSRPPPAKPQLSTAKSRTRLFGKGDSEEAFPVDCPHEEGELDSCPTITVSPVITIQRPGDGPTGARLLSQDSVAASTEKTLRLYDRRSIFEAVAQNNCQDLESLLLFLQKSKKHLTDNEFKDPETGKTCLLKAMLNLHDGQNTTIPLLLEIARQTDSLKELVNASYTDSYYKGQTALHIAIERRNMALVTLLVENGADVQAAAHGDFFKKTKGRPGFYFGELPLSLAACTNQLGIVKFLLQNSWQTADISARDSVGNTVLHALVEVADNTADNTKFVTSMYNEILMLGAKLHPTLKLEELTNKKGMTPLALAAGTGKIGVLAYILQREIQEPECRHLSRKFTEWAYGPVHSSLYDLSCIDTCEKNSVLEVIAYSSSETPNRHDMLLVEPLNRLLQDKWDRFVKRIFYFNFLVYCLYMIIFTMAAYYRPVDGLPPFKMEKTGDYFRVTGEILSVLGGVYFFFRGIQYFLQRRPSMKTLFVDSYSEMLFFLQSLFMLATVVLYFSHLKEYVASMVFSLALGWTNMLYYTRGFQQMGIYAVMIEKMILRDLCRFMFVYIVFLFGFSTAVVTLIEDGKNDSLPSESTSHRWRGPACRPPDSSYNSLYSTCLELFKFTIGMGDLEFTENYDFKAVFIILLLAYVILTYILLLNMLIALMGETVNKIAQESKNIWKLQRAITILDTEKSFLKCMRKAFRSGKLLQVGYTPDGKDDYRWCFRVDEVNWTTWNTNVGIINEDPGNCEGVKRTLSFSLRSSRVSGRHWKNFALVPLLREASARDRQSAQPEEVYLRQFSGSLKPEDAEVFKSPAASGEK
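Fluo-8 calcium influx in TRPV1-expressing cells, kinetic read (ex 480/em 520 nm). Compound added and read 3 min for agonist activity, followed by capsaicin at EC20 final and 2 min further read for enhancement.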
CtBP-E1A inh – CtBP/E1A binding inhibition | activity change, % (concentration not given with the values) | hit rate 0.49% among 340,000 | AlphaScreen GST-E1A/His-CtBP binding, 1536-well; active compounds read low; control for the full effect not named in the record; in the data active means activity change below about -65%; inconclusive means about -30% to -65%; inactive means above about -30%; note: % is set by controls: 0 for no effect and ±100 for the full control effect
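GST-E1A and His-tagged CtBP (125 nM each as 5X stock) were preincubated with pin-transferred compound for 2 h at 37 °C in the dark, then glutathione donor and nickel acceptor beads were added for 1 h before AlphaScreen reading.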
Menin MLL FP FL – inhibitors of human menin-MLL interaction, wild-type MLL peptide. 290,000 tested, under 10 active. Fluorescence polarization, fluorescein-MLL peptide displacement from menin. FP activity change, % at 61.4 µM; inconclusive = falling polarisation curve, or a change in total fluorescence; inactive = total fluorescence flat and polarisation flat or rising; no compound was filed as active; the % refers to the polarisation; negative = inhibition;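 note: % of control where 0% means no effect; inhibitors lower the polarisation; unlabelled MLL peptide was the positive control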
gsp agonist – activates gsp, the McCune-Albright syndrome mutation; gsp mutant cells, cAMP HTRF, 30 min; control for the full effect not named in the record; Potency, µM (titrated, usually from 76.9 µM), for the others: top-dose activation (cAMP increase), hits mostly activators; hit rate 0.13% among 340,000; AID 624287; active = well fitted activation curve with a large enough effect; inconclusive = small, poorly fitted or top-dose-only effect, or another doubt; inactive = no such curve, though single readings can be large or run the other way; cell line not stated here;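 note: phosphodiesterase inhibitor Ro 20-1724 added with compounds to block cAMP breakdown; potency is the fitted concentration of half-maximal effect; nearly all actives have a fitted effect of over 60% in size; about a fifth of the inactives were tested at one dose only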
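Cells stably selected in G418 were plated at 2000/well, grown 16-24 hr, then given compounds in DMSO with the PDE inhibitor […] (300 uM solution added) for 30 min at 37C; cAMP was read by HTRF.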
Sfp PPTase inh – Sfp phosphopantetheinyl transferase inhibition; hit rate 3.5% among 310,000; Potency, µM, for the others: max response, negative = inhibition, most hits filed as inhibitors; Q9F4F7; Biochemical Sfp PPTase activity, qHTS; active = well fitted inhibition curve with a large enough effect; inconclusive = small, poorly fitted or top-dose-only effect, or another doubt; inactive = no such curve, though single readings can be large or run the other way;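 note: the enzyme is Sfp with the accession as filed and its product quenches rhodamine fluorescence; potency is the fitted concentration of half-maximal effect; 0% = enzyme reaction without inhibitor and -100% = no enzyme wells; top concentration of the series not given in the record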
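With Hepes-Na pH 7.6 buffer containing 10 mM MgCl2, Sfp (15 nM) modified BHQ-2-YbbR (12.5 uM) using rhodamine-CoA (5 uM). Two reads 30 minutes apart at 525/598 nm yielded each well's rate.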
gsp antagonist – antagonists of gsp mutant (McCune-Albright syndrome) | Potency, µM (series often up to 76.9 µM), without a hit: at the top dose activity change, negative = inhibition, actives largely listed as inhibitors | hit rate 0.4% among 340,000 | AID 624288 | gsp-mutant cells, cAMP HTRF, 30 min; control for the full effect not named in the record; active = falling curve of any shape with a large fitted effect; inconclusive = falling curve, mostly with a smaller effect; inactive = flat or rising curve; cell line not stated here;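 note: intracellular cAMP measured with PDE inhibitor Ro 20-1724 present during compound exposure; potency is the fitted concentration of half-maximal effect; % is set by controls: 0 for no effect and ±100 for the full control effect; nearly all actives have a fitted effect of over 65% in size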
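Cells in G418 medium, seeded 16-24 h, 37C; buffer exchange to DPBS + 1 mM CaCl2, 0.5 mM MgCl2, 0.05% BSA; cpds in DMSO + […] (300 uM stock), 30 min 37C; HTRF cAMP detection.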
ClpP mod – qHTS Assay for Activators of ClpP | ATP-dependent Clp protease proteolytic subunit (Bacillus subtilis (strain 168)), P80244 | purified B. subtilis ClpP, FRET peptide cleavage, 20 min | Potency, µM (titrated, usually from 57.5 µM), for inactives: at the highest dose activity change, negative = active | hit rate 1.9% among 340,000 | AID 651965, 2013; active = well fitted falling curve with a large enough effect; inconclusive = small, poorly fitted or top-dose-only effect; inactive = no such curve, though single readings can be large or run the other way; note: potency is the fitted concentration of half-maximal effect; the source files actives as falling curves though it sought activators and does not explain the sign; nearly all actives have a fitted effect of over 65% in size; many hits overshoot -100%
Target sequence (P80244 whole entry, looked up): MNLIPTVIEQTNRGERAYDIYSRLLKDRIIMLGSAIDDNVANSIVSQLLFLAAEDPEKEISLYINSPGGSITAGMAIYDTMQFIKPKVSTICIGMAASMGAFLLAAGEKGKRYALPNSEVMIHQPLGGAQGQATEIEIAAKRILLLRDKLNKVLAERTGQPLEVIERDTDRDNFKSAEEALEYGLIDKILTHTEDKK
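Purified B. subtilis ClpP, 10 microg/mL final in Tris/HCl pH8 with KCl, BSA, glycerol and Tween-20, cleaved an Abz/nitrotyrosine-quenched decapeptide. Fluorescence (ex 320, em 430) was read at 0 and 20 min at room temperature. Delta was normalized to 5.8 microM ADEP and DMSO/no-enzyme controls.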
Numbers without * were called inactive; ? = inconclusive; nt = not tested or not shown; [ ] = dose if it differs, or a comment.

SMILES	TRPV1 potentiator	CtBP-E1A inh	Menin MLL FP FL	gsp agonist	Sfp PPTase inh	gsp antagonist	ClpP mod
COc1ccc(-n2nc(C(=O)NCC(=O)N3CC(C)CC(C)C3)c3ccccc3c2=O)cc1 (stereo not drawn)	-12.8	0.0	0.6	10.4%[15.4 µM]	-5.5%	-17.1%	nt
COc1ccc(C(=O)OCCN2C(=O)c3ccccc3C2=O)cc1OC	nt	1.3	nt	-33.0%[inhibitor]	nt	0.0%	-1.2%
O=C(NC1CCCC1)NS(=O)(=O)c1ccccc1Cl	19.6	-0.7	-4.4	-4.5%	15.3%	-8.1%	-1.5%
COc1ccc(-c2cc([N+](=O)[O-])ccc2OCC(=O)N(C)CC(=O)Nc2ccc(C)cc2)cc1	14.9	-10.6	nt	-23.9%[15.4 µM]	nt	?	nt
Cc1cccc(N(C(=O)c2nsc(Cl)c2Cl)C(C(=O)NC2CCCC2)c2ccc(O)cc2)c1C (stereo not drawn)	0.6	-0.6	1.3	-14.6%	18.7%	?	-1.2%
COc1ccccc1OCC(=O)Nc1cccc(N(C)S(C)(=O)=O)c1	-1.0	-15.0	2.1	11.0%	5.8%	0.4%	1.5%
Cn1cnc([N+](=O)[O-])c1Oc1cccc(O)c1	-7.5	2.1	0.0	6.6%	-14.6%	15.6%	1.4%
O=C(O)CC1S/C(=N/N=C/C=C/c2ccccc2[N+](=O)[O-])NC1=O (stereo not drawn)	23.8	-12.2	nt	8.5%	3.7%	-0.7%	-13.2%
COc1cc(CN2CCC(C)CC2)ccc1OCc1ccccc1	-17.3	-10.2	-0.2	-32.4%[inhibitor]	-25.9%	4.3%	-2.1%
Cc1ccc(OCC(O)CNC2CCCC2)c(C)c1 (stereo not drawn)	-8.4	nt	-0.7	-39.5%[inhibitor]	-4.4%	12.2%	-0.1%
O=C(Nc1nc2ccccc2s1)c1cccc(S(=O)(=O)N2CCc3ccccc32)c1	-8.0	-1.1	11.3	9.3%[15.4 µM]	20.5%	?	nt
N#Cc1c(Nc2ccccc2)c(/C=N/NCCO)c[nH]c1=O	3.1	-0.2	1.2	2.1%	-0.7%	1.2%	nt
CCOc1ccc(NC(=O)CC(c2ccccc2)c2ccc(F)cc2)cc1 (stereo not drawn)	7.1	6.8	6.4	-48.1%[inhibitor]	13.5%	-8.2%	1.6%
COc1ccc(S(=O)(=O)N2CCCCCC2)cc1C(=O)NCc1ccco1	nt	-0.8	nt	3.1%	nt	0.2%	nt
Cc1ccc(S(=O)(=O)C2(C(=O)N3CCCCC3C)CC2)cc1 (stereo not drawn)	10.0	3.3	-1.1	17.4%	19.5%	5.3%	-0.9%
Cc1cc(F)ccc1S(=O)(=O)Nc1ccccc1C(=O)NCc1cccnc1	-10.7	-1.9	1.5	-17.8%[15.4 µM]	21.3%	-0.3%	nt
O=C(Cn1nc(C(F)F)cc1C(F)F)N/N=C/c1ccc2c(c1)OCO2	nt	2.2	2.8	7.0%	2.9%	6.8%	-11.9%
CCN(CC)c1ccc(NC(=O)c2cccnc2)cc1	-21.2	-2.4	0.8	-25.2%	-15.2%	-29.7%	0.0%
Cc1cc(C)cc(N(C(=O)CNC(=O)c2cccs2)C(C(=O)NC2CCCC2)c2cccnc2)c1 (stereo not drawn)	nt	1.4	9.2	-36.5%[inhibitor]	5.8%	-14.0%	0.4%
O=C(Cc1ccc(Cl)cc1)NNS(=O)(=O)c1ccc([N+](=O)[O-])cc1	0.2	0.0	-1.8	1.6%	-2.3%	?	-0.2%
COc1ccc(NC(=O)c2cnc(SC)n2-c2ccc(F)cc2)c(OC)c1	-2.8	-7.2	-5.5	-1.1%[15.4 µM]	-19.3%	-13.6%	-13.1%
CCOC(=O)N(CC)OC(=O)Nc1ccc(Cl)cc1	1.3	6.8	2.2	0.6%	15.9%	18.2%	0.9%
O=c1c2oc3ccccc3c2ncn1Cc1ccc(Cl)cc1	9.3	8.5	-0.3	26.9%[15.4 µM]	11.0%	-27.1%	nt
COc1ccc(S(=O)(=O)N[C@H](C(=O)O)C(C)C)cc1	0.5	7.9	0.0	-4.1%	5.4%	9.9%	0.3%
O=C(CCn1c(=S)oc2ccccc21)Nc1ccccc1Br	-6.5	nt	-6.9	28.3%	11.1%	2.5%	-1.5%
N#Cc1nc(COc2ccc(F)cc2)oc1N1CCC(Cc2ccccc2)CC1	27.1	-21.6	-1.5	-7.5%	2.1%	-15.8%	-3.8%
CCC1NC(=O)c2cccnc2-n2c1nc1cc(C)cc(C)c1c2=O (stereo not drawn)	nt	4.3	nt	-58.5%[inhibitor]	nt	nt	-4.7%
COc1ccccc1CNC(=O)c1cccc(S(=O)(=O)N2CCCC2)c1	-5.1	1.3	nt	-7.1%	nt	-6.0%	-1.4%
CCOc1ccc(NC(=O)c2nnn(CC(=O)Nc3ccccc3OCC)c2N)cc1	13.8	4.4	5.1	15.8%	9.6%	5.5%	?
COC(=O)[C@H](CO)N1C(=O)[C@@H]2[C@H](C1=O)C1C=C[C@H]2C1	nt	0.0	nt	nt	nt	-6.0%	-4.4%
COc1cc(N(C)C)c(NC(C)=O)cc1C(=O)O	4.6	5.9	8.3	-49.9%[inhibitor]	10.3%	2.1%	0.4%
Cc1nc(C)c(C(=O)C2=C(O)C(=O)N(CCN(C)C)C2c2ccccc2)s1 (stereo not drawn)	0.1	-2.8	-0.7	-11.3%	-12.0%	8.4%	-2.8%
CCCc1cc(=O)[nH]c(SCC(=O)N(C)CC(=O)Nc2ccc(F)cc2)n1	5.6	7.7	nt	-3.2%	nt	6.4%	-0.8%
CC(=O)NC1=NN(C(C)=O)C(C)(c2ccc(C)o2)S1 (stereo not drawn)	6.1	-2.7	3.4	?	6.0%	7.5%	nt
COc1ccccc1NC(=S)N1CCC(NC(=O)c2ccco2)CC1	12.3	-0.1	0.1	20.8%	?	7.4%	nt
COc1ccc(CSCC(=O)N/N=C/c2ccc(OCC(=O)NCc3ccco3)cc2)cc1	8.5	-4.3	3.3	-3.7%	-6.7%	-19.3%	-1.2%
O=C(CN1C(=O)COc2ccc(S(=O)(=O)N3CCCC3)cc21)Nc1cccc(F)c1	-11.0	nt	-1.9	-3.0%	23.7%	2.9%	0.6%
CC(O)Cc1cn([C@@H](CCCCN)C(=O)N2CCNCC2)nn1 (stereo partly drawn)	-8.8	-7.0	-0.6	nt	-5.5%	2.7%	2.3%
CCOc1ccc(-c2nc(-c3ccncc3)no2)cc1OCC	-1.6	2.0	2.1	-33.3%[inhibitor]	15.5%	-4.4%	-5.7%
O=C(NCc1cccnc1)c1ccc([N+](=O)[O-])cc1	2.7	7.1	-3.1	18.4%[15.4 µM]	7.4%	nt	nt
Cc1cc(C(F)(F)F)nc(SCC(=O)Nc2nccs2)n1	13.2	2.7	-4.0	-25.9%	-13.1%	3.2%	-1.0%
CNC(=O)Nc1ccccc1F	-2.0	0.0	2.9	-25.9%	25.1%	12.9%	1.7%
Cc1ccc2c(c1)C(c1ccccc1)C(=O)O2 (stereo not drawn)	5.2	-18.4	-0.7	0.1%[15.4 µM]	50.1µM*	3.9%	-1.6%
CCC(CC)C1C(C#N)=C(N)Oc2n[nH]c(-c3ccccc3)c21 (stereo not drawn)	-2.4	8.7	0.4	-12.8%	?	4.0%	0.9%
O=C(Nc1cc(Cl)cc(Cl)c1)C(c1ccccc1)N1CCCCC1 (stereo not drawn)	-13.2	0.5	3.2	14.4%	1.4%	7.5%	-3.7%
S=C(Cc1ccccc1)N1CCOCC1	nt	4.0	nt	-18.1%	nt	12.1%	-0.6%
COC(=O)c1c(NC(=O)C2CC(C)=C(C)CC2C(=O)O)sc2c1CCCCC2 (stereo not drawn)	2.3	4.0	nt	40.6%	-8.0%	-5.0%	-11.7%
Cc1cccc(C(=O)NCC(=O)OCC(=O)c2ccc(C)s2)c1	nt	10.7	nt	14.1%	nt	-5.5%	nt
CC1(CCC(=O)N2CCCC(N3CCN(c4ccc(F)cc4)CC3)C2)CC1 (stereo not drawn)	27.9	0.0	nt	-49.4%[inhibitor]	5.4%	-15.2%	-1.1%
Cc1cc(S(=O)(=O)Nc2ccc3cn[nH]c3c2)c(C)cc1Cl	5.5	2.0	-4.3	17.2%	6.3%	-9.4%	nt
CC(C)(C)C(=O)Nc1nnc(SCC(=O)Nc2nccs2)s1	2.7	-4.5	0.2	4.3%	12.9%	-1.0%	20µM*
Cc1cc(NC(=O)c2ccc3c(c2)C(=O)N(c2cccc(C)c2C)C3=O)no1	3.1	-1.7	-1.7	-13.5%	-14.7%	-6.9%	4.9%
CN(NC(=O)c1ccccc1)c1ncc(C(F)(F)F)cc1Cl	?	4.5	6.6	4.8%[15.4 µM]	7.5%	-3.2%	nt
CCN(CC(=O)Nc1c(F)cccc1F)C(=O)c1cc(S(=O)(=O)N(C)C)ccc1N1CCCC1	-9.7	10.0	nt	-64.1%[inhibitor]	nt	-1.7%	0.9%
O=C1OCCN1c1c(-c2ccccc2)c(N2CCOCC2)nc2ccccc12	nt	8.3	nt	-14.9%	nt	-1.4%	-25.2%
COc1ccc(-c2[nH]ncc2CN(C)Cc2cccnc2)c(OC)c1	-1.1	-13.3	-7.4	-22.5%	7.9%	4.2%	-2.7%
CCc1ccc(N2CC(C)Cn3c2nc2c3c(=O)n(CCN3CCOCC3)c(=O)n2C)cc1 (stereo not drawn)	-13.7	7.4	-2.4	-10.4%	7.6%	-4.3%	-2.3%
CCC1(C)N=c2c(c(=O)n(C)c(=O)n2C)=NO1 (stereo not drawn)	2.8	-0.4	0.8	-21.0%	7.3%	3.2%	1.0%
N#Cc1c2c(c(Nc3ccc(F)cc3)n3c1nc1ccccc13)CCCC2	nt	3.2	nt	24.9%	nt	-27.6%	-8.5%
COc1cccc(C2=NOC(C(=O)N3CCN(c4ccccc4)CC3)C2)c1OC (stereo not drawn)	6.1	1.0	0.7	6.3%	-2.2%	-3.1%	-1.8%
